CtBP-E1A inh – qHTS Assay for Inhibitors of the CtBP/E1A Interaction; AlphaScreen GST-E1A/His-CtBP binding, 1536-well; stronger effect = lower value; control for the full effect not named in the record; activity change, % (concentration not given with the values); actives 0.49% (n = 340,000); AID 651724, 2012; in the data active means activity change below about -65%; inconclusive means about -30% to -65%; inactive means above about -30%; further: on the % scale 0 is the no-effect control and ±100 the full control effect
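AlphaScreen with 125 nM GST-E1A and 125 nM His-CtBP (5X stocks) in Tris pH 8.0, 300 mM NaCl, BSA, Tween 20, TCEP. Compounds preincubated 2 h at 37 deg C, then glutathione donor/nickel acceptor beads added for 1 h at 37 deg C in dark.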
TRPML1 ag – qHTS for Agonists of the Human Mucolipin Transient Receptor Potential 1 (TRPML1). Mucolipin-1 (Homo sapiens), Q9GZU1. TRPML1-expressing cells, Ca2+ dye fluorescence, FDSS; host cell line not named in the record; reference of the full effect not given here. activation, % (concentration not given with the values). actives 0.12% (n = 410,000); in the data active = activation above about 50%; inconclusive = about 30% to 50%; inactive = below about 30%; further: 0% is about no effect; the text of the record puts the active cut at 80%
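In this qHTS format, compounds were pin-transferred onto Ca8-dye-loaded TRPML1-DL cells induced with Tet overnight, and intracellular Ca2+ fluorescence was recorded kinetically for 110 s after a 10 s baseline. A subsequent 4uM final 54-4 (EC80) addition followed by a second 110 s read served as the antagonist phase.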
TRPV1 potentiator – HTS Assay for Compounds that Act as Potentiators of the Vanilloid Receptor 1 | Transient receptor potential cation channel subfamily V member 1 (Homo sapiens), Q8NER1 | TRPV1-expressing cells, Fluo-8 calcium influx, capsaicin EC20 potentiation; host cell line not named in the record; control for the full effect not named in the record | potentiation, % at 8.33 µM | actives 0.02% (n = 320,000) | AID 540277, 2011; active means potentiation above 80%; inconclusive means 30% to 80%; inactive means below 30%; further: 0% is about no effect
Target sequence (Q8NER1 whole entry, looked up): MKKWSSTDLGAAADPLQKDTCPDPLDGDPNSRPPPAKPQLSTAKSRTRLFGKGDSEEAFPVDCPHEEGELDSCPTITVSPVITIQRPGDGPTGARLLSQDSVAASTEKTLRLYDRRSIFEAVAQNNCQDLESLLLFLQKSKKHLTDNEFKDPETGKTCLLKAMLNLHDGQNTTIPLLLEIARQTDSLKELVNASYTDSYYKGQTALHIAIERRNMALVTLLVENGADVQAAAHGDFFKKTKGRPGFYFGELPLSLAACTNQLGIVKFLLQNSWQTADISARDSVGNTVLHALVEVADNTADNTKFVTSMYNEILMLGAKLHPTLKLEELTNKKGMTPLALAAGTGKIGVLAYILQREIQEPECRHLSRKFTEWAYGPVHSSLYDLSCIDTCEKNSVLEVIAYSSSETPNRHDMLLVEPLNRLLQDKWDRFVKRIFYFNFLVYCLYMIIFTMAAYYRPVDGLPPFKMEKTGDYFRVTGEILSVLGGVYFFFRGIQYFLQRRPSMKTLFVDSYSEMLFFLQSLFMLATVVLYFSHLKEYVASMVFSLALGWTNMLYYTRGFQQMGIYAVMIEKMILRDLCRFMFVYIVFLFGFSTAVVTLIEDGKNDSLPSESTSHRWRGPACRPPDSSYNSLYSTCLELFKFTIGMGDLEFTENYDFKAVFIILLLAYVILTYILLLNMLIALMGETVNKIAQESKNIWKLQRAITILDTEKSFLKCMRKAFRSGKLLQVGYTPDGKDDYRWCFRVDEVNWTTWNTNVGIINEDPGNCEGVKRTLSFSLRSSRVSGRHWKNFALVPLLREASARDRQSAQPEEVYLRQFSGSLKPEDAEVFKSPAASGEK
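TRPV1-expressing cells were cultured overnight at 35.5C and loaded with Fluo-8 calcium dye for 40 to 90 min at room temperature. After a 10 s baseline, compound was added and calcium influx was read kinetically for 3 min (ex 480/em 520 nm).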
Six1-Eya2 blk – qHTS Assay for Inhibitors of the Six1/Eya2 Interaction. Homeobox protein SIX1 (Homo sapiens) + Protein phosphatase EYA2 (Homo sapiens), …. AlphaScreen GST-Six1/His-Eya2 binding, biochemical; stronger effect = lower value; control for the full effect not named in the record. activity change, % (no concentration beside the values). actives 0.56% (n = 360,000). AID 651725, 2012; in the data active = activity change below about -65%; inconclusive = about -30% to -65%; inactive = above about -30%; further: on the % scale 0 is the no-effect control and ±100 the full control effect; compound concentration not given in the record
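Six1/Eya2 binding was read as AlphaScreen signal after compounds were pinned into GST-Six1 plus His-tagged Eya2 (5X stock 250/500 nM) in pH 8.0 Tris/NaCl/TCEP buffer, beads added, then incubated 1 h, 37 C, dark.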
D2 PAM – Beta-Arrestin HTS for Positive Allosteric Modulators of the Human D2 Dopamine Receptor: Potentiators. potentiation, % (concentration not given with the values). actives 0.23% (n = 360,000). DiscoveRx D2 beta-arrestin cells, luminescence, 90 min; 100% = 57 uM dopamine signal; active = potentiation of 50% or more; inconclusive = 30% to 50%; inactive = 30% or less;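 further: compound concentration not given in the record; tested on top of an EC20 dose of dopamine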
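D2 cells co-treated with compound plus 50 nM dopamine (EC20) for 90 min at 37 deg C to detect potentiation. Beta-arrestin recruitment was read as enzyme-fragment luminescence after 1 h at ambient temperature. Full response was set by 57 uM dopamine.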
TRPML1 blocker – qHTS for Inhibitors of the Human Mucolipin Transient Receptor Potential 1 (TRPML1); TRPML1-inducible cells, Ca2+ dye fluorescence, FDSS; stronger effect = lower value; inhibition of EC80 agonist-evoked calcium signal; Mucolipin-1 (Homo sapiens), Q9GZU1; activity change, negative = inhibition, % (no concentration beside the values); actives 0.02% (n = 390,000); in the data active means activity change below about -50%; inconclusive means about -30% to -50%; inactive means above about -30%;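 further: stimulus is agonist 54-4 at its EC80 concentration; on the % scale 0 is the no-effect control and ±100 the full control effect; compound concentration not given in the record; the text of the record puts the active cut at -80%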
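Calcium fluorescence in TRPML1-DL cells induced overnight with Tet: a 110 s read after compound pin addition, then a 110 s antagonist read after challenge with 54-4 at 4 uM final (EC80).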
Active calls of the source: *. Compounds as they come; any-hit rate near 0.95%.

`CC(C)Cn1c(N)c(C(=O)CSc2nnnn2-c2ccc(Cl)cc2)c(=O)n(C)c1=O` gave CtBP-E1A inh -11, TRPML1 ag -0.5, Six1-Eya2 blk 3, D2 PAM -9 and TRPML1 blocker 11.
O=C(O)C(CCc1ccccn1)c1ccccc1 (stereo not drawn) was read as CtBP-E1A inh 0, TRPML1 ag -0.5, Six1-Eya2 blk 3, D2 PAM -1 and TRPML1 blocker 3.
Screening O=C(CCCCO)CCCCCCCC[C@H]1N[C@H](CO)[C@H](O)[C@@H]1O[C@@H]1O[C@H](CO)[C@@H](O)[C@H](O)[C@H]1O returned CtBP-E1A inh 1, TRPML1 ag 0.0, TRPV1 potentiator 4, Six1-Eya2 blk 0, D2 PAM -4 and TRPML1 blocker -1.
`COc1cc(/C=N\NC(=O)c2ccc(Cn3cc(Br)c([N+](=O)[O-])n3)o2)cc(OC)c1O` gave CtBP-E1A inh 2, TRPML1 ag 0.1, TRPV1 potentiator 19, Six1-Eya2 blk 11, D2 PAM -17 and TRPML1 blocker 38.
Screening COc1ccccc1C(=O)COC(=O)Cn1c(C)csc1=O returned CtBP-E1A inh 7, TRPML1 ag -0.2, TRPV1 potentiator -3, Six1-Eya2 blk -3, D2 PAM -7 and TRPML1 blocker -4.
For CC1=C(C(=O)N(C(C)C)C(C)C)CC(CC(=O)NCCN2CCOCC2)C(=O)N1Cc1ccc(F)cc1 (stereo not drawn) the results were CtBP-E1A inh 2, TRPML1 ag -0.5, Six1-Eya2 blk 2 and D2 PAM 2.
COc1cc(NC(=O)C2CC(c3ccc(Cl)cc3)=NO2)cc(OC)c1OC (stereo not drawn) was read as CtBP-E1A inh 0, TRPML1 ag 4.7, TRPV1 potentiator 4, Six1-Eya2 blk -7, D2 PAM -3 and TRPML1 blocker 23.
`O=C(COc1cnc2ccccc2n1)NCCC1=CCCCC1` gave CtBP-E1A inh 1, TRPML1 ag -0.2, TRPV1 potentiator 2, Six1-Eya2 blk 6, D2 PAM -6 and TRPML1 blocker -4.
CCc1cnc(Nc2nc(C(N)c3ccccc3Cl)cs2)nc1 (stereo not drawn) was read as CtBP-E1A inh inconclusive, TRPML1 ag -0.1, Six1-Eya2 blk inconclusive and D2 PAM -4.
CN(CCC1CCOCC1)C(=O)C1CCC(=O)N(CCc2ccccc2)C1 (stereo not drawn) was read as CtBP-E1A inh 2, TRPML1 ag -0.2, TRPV1 potentiator -6, Six1-Eya2 blk 7, D2 PAM -18 and TRPML1 blocker -6.
O=c1[nH]c(/C=C/c2ccc([N+](=O)[O-])cc2)c([N+](=O)[O-])c(=O)[nH]1 was read as TRPV1 potentiator 2, Six1-Eya2 blk -1 and D2 PAM 52*.
For O=C(OCCOc1ccccc1Cl)c1cc(S(=O)(=O)N2CCCCC2)ccc1N1CCOCC1 the results were TRPML1 ag 0.1, Six1-Eya2 blk -2, D2 PAM 1 and TRPML1 blocker 32.

Among those listed so far, 3 contain an aryl methoxy group.
`COc1cc(/C=N\NC(=O)c2ccc(Cn3cc(Br)c([N+](=O)[O-])n3)o2)cc(OC)c1O` gave CtBP-E1A inh 2, TRPML1 ag 0.1, TRPV1 potentiator 19, Six1-Eya2 blk 11, D2 PAM -17 and TRPML1 blocker 38.
Screening COc1ccccc1C(=O)COC(=O)Cn1c(C)csc1=O returned CtBP-E1A inh 7, TRPML1 ag -0.2, TRPV1 potentiator -3, Six1-Eya2 blk -3, D2 PAM -7 and TRPML1 blocker -4.
COc1cc(NC(=O)C2CC(c3ccc(Cl)cc3)=NO2)cc(OC)c1OC (stereo not drawn) was read as CtBP-E1A inh 0, TRPML1 ag 4.7, TRPV1 potentiator 4, Six1-Eya2 blk -7, D2 PAM -3 and TRPML1 blocker 23.

(listing goes on)
Screening Cc1ccc(S(=O)(=O)Nc2ccc3c(c2)CCC3)cc1C returned CtBP-E1A inh 7, TRPML1 ag 3.0, TRPV1 potentiator -3, Six1-Eya2 blk 1, D2 PAM 17 and TRPML1 blocker 2.
For OC(CNC1CCCCC1)CNC1CCCCC1 the results were TRPML1 ag -0.3, TRPV1 potentiator 6, Six1-Eya2 blk 1, D2 PAM -12 and TRPML1 blocker -6.
`CCOC(=O)c1c(NC(=O)OC)sc(C(=O)N(C)C)c1C` gave CtBP-E1A inh 1, TRPML1 ag -0.2, TRPV1 potentiator -6, Six1-Eya2 blk 5, D2 PAM 14 and TRPML1 blocker 38.
O=C(O)C1CCC(Cn2c(SCc3cc(=O)n4ccccc4n3)nc3ccsc3c2=O)CC1 (stereo not drawn) was read as CtBP-E1A inh 8, TRPML1 ag -0.4, TRPV1 potentiator 25, Six1-Eya2 blk -5, D2 PAM -23 and TRPML1 blocker 10.
Screening C1CN(CC23CC4CC(CC(C4)C2)C3)CCO1 returned CtBP-E1A inh 1, TRPML1 ag 0.5, TRPV1 potentiator 6, Six1-Eya2 blk 8, D2 PAM -29 and TRPML1 blocker -16.
Screening O=C(OCCN1CCCCC1)c1ccc(O)cc1 returned CtBP-E1A inh -1, TRPML1 ag -0.4, TRPV1 potentiator 2, Six1-Eya2 blk 1, D2 PAM -16 and TRPML1 blocker 15.
For COc1ccc2nc(N3C(=O)/C(=C/c4ccccc4)NC3=S)sc2c1 the results were CtBP-E1A inh 0, TRPML1 ag 2.5, TRPV1 potentiator 7, Six1-Eya2 blk -6, D2 PAM 3 and TRPML1 blocker 1.
For CN(C)c1ccc(C(C(=O)NC2CCCC2)N(Cc2cccnc2)C(=O)c2snc(C(N)=O)c2N)cc1 (stereo not drawn) the results were CtBP-E1A inh -1, TRPML1 ag -1.5, TRPV1 potentiator -27, Six1-Eya2 blk -23, D2 PAM -7 and TRPML1 blocker 26.
COc1ccc(CN2CCC(N3CC(C)OC(C)C3)CC2)c(OC)c1 (stereo not drawn) was read as CtBP-E1A inh -5, TRPML1 ag 0.0, TRPV1 potentiator 6, Six1-Eya2 blk 6, D2 PAM -7 and TRPML1 blocker -11.
`COc1ccc(NC(=O)C(=O)NCC(c2ccco2)N2CCc3ccccc3C2)cc1` (stereo not drawn) gave CtBP-E1A inh 5, TRPML1 ag 0.8, TRPV1 potentiator -4, Six1-Eya2 blk -3, D2 PAM -2 and TRPML1 blocker 2.
For O=C(COc1cccc(Cl)c1)NCc1ccccc1 the results were CtBP-E1A inh 13, TRPML1 ag -0.2, TRPV1 potentiator -7, Six1-Eya2 blk -1, D2 PAM -4 and TRPML1 blocker 0.
For OC(c1cccc(Cl)c1)c1ncc(-c2ccccc2Cl)[nH]1 (stereo not drawn) the results were CtBP-E1A inh -16, TRPML1 ag -0.6, Six1-Eya2 blk -9 and D2 PAM -10.

Two consecutive records already listed, for reference:
For O=C(COc1cccc(Cl)c1)NCc1ccccc1 the results were CtBP-E1A inh 13, TRPML1 ag -0.2, TRPV1 potentiator -7, Six1-Eya2 blk -1, D2 PAM -4 and TRPML1 blocker 0.
For OC(c1cccc(Cl)c1)c1ncc(-c2ccccc2Cl)[nH]1 (stereo not drawn) the results were CtBP-E1A inh -16, TRPML1 ag -0.6, Six1-Eya2 blk -9 and D2 PAM -10.

The list goes on:
`C=CCc1ccc(OCCCNC2CCCC2)c(OC)c1` gave CtBP-E1A inh -1, TRPML1 ag 6.0, Six1-Eya2 blk -8, D2 PAM -5 and TRPML1 blocker 6.
COc1cc2oc(=O)cc(-c3ccc(-c4ccc(OC(F)(F)F)cc4)cc3)c2c(OC)c1OC was read as CtBP-E1A inh 7, TRPML1 ag -0.7, Six1-Eya2 blk 6 and TRPML1 blocker 7.
Screening CC(NC(=O)c1ccco1)C1COc2ccccc2O1 (stereo not drawn) returned CtBP-E1A inh 1, TRPML1 ag -0.3, TRPV1 potentiator 2, Six1-Eya2 blk 4, D2 PAM 0 and TRPML1 blocker -1.
For CCC(=O)N(CCc1ccccc1C)Cc1cc2ccc(C)cc2[nH]c1=O the results were CtBP-E1A inh -5, TRPML1 ag 0.5, TRPV1 potentiator 14, Six1-Eya2 blk 0, D2 PAM -1 and TRPML1 blocker -2.
CC(C)(C)c1cc(NC(=O)c2cc(F)c(F)c(F)c2F)no1 was read as CtBP-E1A inh 2, TRPML1 ag 0.5, TRPV1 potentiator -15, Six1-Eya2 blk 5, D2 PAM -10 and TRPML1 blocker 9.
Screening CC(=O)c1ccc(S(=O)(=O)N2CCCC2)cc1 returned CtBP-E1A inh -7, TRPML1 ag 0.0, TRPV1 potentiator 0, Six1-Eya2 blk 0, D2 PAM -8 and TRPML1 blocker 42.
Screening Cc1ccc(CNC(=O)Cn2nnc(C(=O)Nc3ccc(Br)cc3)c2N)cc1 returned CtBP-E1A inh 6, TRPML1 ag -0.4, TRPV1 potentiator 10, Six1-Eya2 blk 2, D2 PAM -4 and TRPML1 blocker -2.
For COc1ccc(CC(=O)Nc2c(C(=O)N3CCN(c4ncccn4)CC3)oc3ccccc23)cc1 the results were CtBP-E1A inh 3, TRPML1 ag 7.8, TRPV1 potentiator -2, Six1-Eya2 blk -2, D2 PAM -11 and TRPML1 blocker 8.
Cn1c(=O)n(CCOc2ccc([N+](=O)[O-])cc2)c2ccccc21 was read as CtBP-E1A inh 5, TRPML1 ag 0.6, TRPV1 potentiator 25, Six1-Eya2 blk 3, D2 PAM -3 and TRPML1 blocker -8.
`O=C(NC1CCCCC1)c1cc(-c2ccc(F)cc2)on1` gave CtBP-E1A inh 0, TRPML1 ag 0.7, TRPV1 potentiator inconclusive, Six1-Eya2 blk 2, D2 PAM 1 and TRPML1 blocker -2.
For CCOC(=O)c1c(SC)[nH]c2c(Cl)cccc2c1=O the results were CtBP-E1A inh -16, TRPML1 ag -0.3, TRPV1 potentiator 2, Six1-Eya2 blk 0, D2 PAM -2 and TRPML1 blocker -1.
For COCCCNC(=O)CC(NS(=O)(=O)c1ccc(C)cc1)c1ccc(OC)cc1 (stereo not drawn) the results were CtBP-E1A inh 2, TRPML1 ag -0.5, TRPV1 potentiator 9, Six1-Eya2 blk 2, D2 PAM -12 and TRPML1 blocker 3.
`O=C(Oc1cccc(-n2cnnn2)c1)c1ccccc1` gave CtBP-E1A inh 8, TRPML1 ag 1.1, TRPV1 potentiator 2, Six1-Eya2 blk -19, D2 PAM 0 and TRPML1 blocker 11.
Cc1ccc(C)c(SCC(=O)NNC(=O)c2ccccc2)c1 was read as CtBP-E1A inh -6, TRPML1 ag -0.5, TRPV1 potentiator -1, Six1-Eya2 blk -3, D2 PAM -9 and TRPML1 blocker -9.
NC(=S)Nc1ncc(C(F)(F)F)cc1Cl was read as CtBP-E1A inh -11, TRPML1 ag 1.3, TRPV1 potentiator -4, Six1-Eya2 blk 7, D2 PAM -5 and TRPML1 blocker 2.
